Bioassay records from PubChem.
Six1-Eya2 blk – blocks human Six1 binding to Eya2; Q15475+O00167; AlphaScreen GST-Six1/His-Eya2 binding, biochemical; stronger effect = lower value; control for the full effect not named in the record; activity change, % (concentration not given with the values); hit rate 0.56% among 360,000; in the data active = activity change below about -65%; inconclusive = about -30% to -65%; inactive = above about -30%; further: on the % scale 0 is the no-effect control and ±100 the full control effect
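GST-Six1 + His-Eya2 (5X stock: 250/500 nM); Tris pH 8.0, 300 mM NaCl, 0.05% BSA, 0.02% Tween 20; GSH donor/Ni acceptor beads; 1 h 37 °C dark; AlphaScreen readout.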
PINK1 expr mod – changes PINK1 expression. PINK1 immunofluorescence, high-content cytometry, 24 h. hit rate 0.2% among 410,000. Potency, µM (titrated, usually from 76.6 µM), for the others: at the highest dose activation (PINK1 increase), most hits filed as activators; active = well fitted activation curve with a large enough effect; inconclusive = small, poorly fitted or top-dose-only effect; inactive = flat fitted curve, though single readings scatter; cell line not stated here;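 further: potency means the concentration at half of the fitted maximal effect; % of control where 0% means no effect; nearly all actives have a fitted effect of over 65% in size; a mitochondrial uncoupler was the plate control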
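Measures PINK1 amount and localization on or inside mitochondria by immunofluorescence. Stable cells get compounds at 5 concentrations for 24 hours before fixation and staining; CCCP controls included.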
TRPV1 PAM – enhances activation of the human vanilloid receptor TRPV1. hit rate 0.02% among 320,000. TRPV1-expressing cells, Fluo-8 calcium influx, capsaicin EC20 potentiation; host cell line not named in the record; control for the full effect not named in the record. AID 540277. potentiation, % at 8.33 µM. Q8NER1; active means potentiation above 80%; inconclusive means 30% to 80%; inactive means below 30%; further: 0% is about no effect
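TRPV1-expressing cells were cultured overnight at 35.5C and loaded with Fluo-8 calcium dye for 40 to 90 min at room temperature. After a 10 s baseline, compound was added and calcium influx was read kinetically for 3 min (ex 480/em 520 nm).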
D2 agonist – human D2 receptor agonism in beta-arrestin assay | P14416 | DiscoveRx PathHunter D2 beta-arrestin, luminescence, 90 min; 100% = 57 uM dopamine signal | activation, % (test concentration not listed) | hit rate 0.084% among 360,000 | AID 624465; in the data active = activation above about 40%; inconclusive = about 15% to 40%; inactive = below about 15%; further: compound concentration not given in the record; the text of the record calls up to 30% inactive
Target sequence (P14416 whole entry, looked up): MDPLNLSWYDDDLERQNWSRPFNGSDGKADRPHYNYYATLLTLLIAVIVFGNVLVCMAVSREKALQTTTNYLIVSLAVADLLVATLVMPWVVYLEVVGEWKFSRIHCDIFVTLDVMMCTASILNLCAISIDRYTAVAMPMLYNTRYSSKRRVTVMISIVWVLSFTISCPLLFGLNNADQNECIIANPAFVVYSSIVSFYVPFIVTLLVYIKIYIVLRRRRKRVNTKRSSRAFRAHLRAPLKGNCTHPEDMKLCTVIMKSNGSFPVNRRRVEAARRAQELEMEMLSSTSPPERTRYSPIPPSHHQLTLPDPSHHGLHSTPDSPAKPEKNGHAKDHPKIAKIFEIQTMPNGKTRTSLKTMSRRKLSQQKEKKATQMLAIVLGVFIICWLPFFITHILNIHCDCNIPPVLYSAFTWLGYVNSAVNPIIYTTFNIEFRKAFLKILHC
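DiscoveRx PathHunter D2 beta-arrestin cells (2,100/well) attached overnight, then compound-stimulated 90 min at 37 C in HBSS/10 mM HEPES/0.1% Tween-20 buffer; beta-galactosidase complementation read by luminescence after 1 h at ambient temperature. Dopamine 57 uM final (EC100) as control.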
CtBP-E1A blk – CtBP/E1A binding inhibition; AlphaScreen GST-E1A/His-CtBP binding, 1536-well; stronger effect = lower value; control for the full effect not named in the record; activity change, % (test concentration not listed); hit rate 0.49% among 340,000; in the data active means activity change below about -65%; inconclusive means about -30% to -65%; inactive means above about -30%; further: on the % scale 0 is the no-effect control and ±100 the full control effect; compound concentration not given in the record
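Steps: dispense buffer (Tris pH 8.0, NaCl 300 mM, TCEP 1 mM, BSA, Tween 20); add 5X protein mix (GST-E1A, His-CtBP, 125 nM each); pin 23 nL compound; 2 h at 37 °C, dark; add 5X beads (50 ug/mL); 1 h; read.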
D2 potentiator – potentiates the human D2 dopamine receptor allosterically; hit rate 0.23% among 360,000; DiscoveRx D2 beta-arrestin cells, luminescence, 90 min; 100% = 57 uM dopamine signal; P14416; potentiation, % (concentration not given with the values); AID 624464; active = potentiation of 50% or more; inconclusive = 30% to 50%; inactive = 30% or less;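 further: compound concentration not given in the record; tested on top of an EC20 dose of dopamine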
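PathHunter D2 cells, attached overnight at 37 deg C, received compound in DMSO plus dopamine at EC20 (50 nM final) for 90 min at 37 deg C. Beta-arrestin recruitment was read as luminescence after 1 h with detection reagent at ambient temperature.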
Sfp inh – Sfp phosphopantetheinyl transferase inhibition | Biochemical Sfp PPTase activity, qHTS | Potency, µM, without a hit: max response, negative = inhibition, usual class: inhibitors | hit rate 3.5% among 310,000; active means well fitted inhibition curve with a large enough effect; inconclusive means small, poorly fitted or top-dose-only effect, or another doubt; inactive means no such curve, though single readings can be large or run the other way;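 further: the enzyme is Sfp with the accession as filed and its product quenches rhodamine fluorescence; potency means the concentration at half of the fitted maximal effect; 0% = enzyme reaction without inhibitor and -100% = no enzyme wells; top concentration of the series not given in the record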
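Buffer: 50 mM Hepes-Na pH 7.6, 10 mM MgCl2, 0.01% Nonidet P-40, 0.01% BSA. Enzyme 15 nM, pre-exposed to compound 15 min; substrates then added and fluorescence change tracked over 30 min.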
The depositor's hits bear a star; ? = inconclusive; nt = no result given; & = joins results of further samples; [ ] = dose if it differs, or a comment. Some of the compounds tested (hit frequency here may not be typical).

SMILES | Six1-Eya2 blk | PINK1 expr mod | TRPV1 PAM | D2 agonist | CtBP-E1A blk | D2 potentiator | Sfp inh
CCOC(=O)c1ccc(-n2c(N)c(C(=O)NCC3CCCO3)sc2=S)cc1 (configuration not stated) | -0.7 | 0.1% | 3.6 | -5.4 | -0.2 | -22.9 | 31.6µM*
O=P(OC1=CCCCC1)(c1ccccc1)c1ccccc1 | 3.8 | -1.1% | nt | -2.7 | 5.5 | -6.0 | nt
Cc1ccccc1C(=O)N1Cc2cnnn2-c2ccccc2C1C#N (configuration not stated) | 4.1 | -2.0% | nt | -0.2 | 2.1 | 0.9 | nt
CC1=Nc2ccccc2/C1=C/c1c(O)[nH]c(=O)[nH]c1=O | -2.6 | -0.1% | ? | 5.2 | -1.3 | 0.0 | -0.3%
O=C(Nc1cccc(Cl)c1)c1c(O)c2c(n(Cc3ccco3)c1=O)CCCC2 | -0.2 | -2.3% | 10.6 | -1.7 | 3.4 | -8.0 | -10.6%
CCOC(=O)c1cc(CC)sc1/N=C/C1C(=O)NC(=S)NC1=O | -0.7 | 0.0% | ? | 2.9 | 1.0 | 0.2 | 17.8µM*
O=C1NC(=O)C(=Cc2ccc(-c3cc(Cl)ccc3[N+](=O)[O-])o2)C(=O)N1 | -9.3 | -1.4% | -5.0 | 8.0 | -15.0 | 8.5 | -102.1%
CC(C)CCn1c(=O)c(C(=O)NCc2ccc3c(c2)OCO3)c(O)c2ccccc21 | 5.2 | ? | 8.7 | -4.4 | -24.7 | -11.2 | 4.1%
CC12CC(c3ccccc3O1)C(C(=O)OCc1ccccc1)C(=O)N2 (configuration not stated) | 0.7 | -2.2% | ? | 1.1 | -4.1 | -14.6 | 2.5%
CN1CCN(Cc2nc3ccccc3c(=O)[nH]2)CC1 | -1.8 | 1.0%[38.3 µM] | -4.8 | -2.8 | 2.9 | -4.4 | 7.6%
CCC(=NCCCN(CC)CC)c1c(O)n(C2CCCCC2)c(=O)[nH]c1=O | -1.3 | -1.0% | 6.6 | -2.5 | 2.4 | -5.0 | 1.8%
CCCCCCN=C(C)c1c(O)n(CCCC)c(=O)[nH]c1=O | -8.2 | 0.4% | -14.1 | -2.7 | 2.6 | -16.8 | 14.8%
COC(=O)C1=C(c2cccc(OCc3ccccc3)c2)C[C@@H]2CC[C@H]1N2C(=O)NCc1ccc(C(C)(C)C)cc1 | 7.2 | 1.9% | 3.1 | -4.0 | nt | -8.7 | nt
Cc1ccc(N2C(=O)NC(=O)/C(=C/c3ccc(OC(=O)c4cccs4)cc3)C2=O)cc1 | ? | 1.1% | -3.1 | -1.9 | -8.0 | -5.5 | 44.7µM*
COC(=O)C1=C(N)Oc2c(c(=O)oc3ccccc23)C1c1cccnc1 (configuration not stated) | -3.6 | 11.8% | 30.0 | 0.7 | -2.7 | -3.8 | 16.6%
O=C(COc1ccccc1)N1CCN(C2CCCC2)CC1 | 8.6 | 8.2% | -6.5 | -1.4 | 1.5 | -4.8 | -3.9%
O=C(c1ccccc1)c1cn(CC(=O)N2CCCC2)c2ccccc12 | 5.4 | 2.7% | nt | 0.9 | 2.7 | -5.0 | -3.4%
Cc1cccc(C)c1NC(=O)c1cccn(Cc2ccc3c(c2)OC(F)(F)O3)c1=O | -0.7 | -0.2% | 12.7 | -0.6 | 1.0 | 6.1 | -7.4%
CCC(=Nc1ccc(OC)cc1OC)c1c(O)[nH]c(=O)[nH]c1=O | -2.0 | -0.5% | 7.0 | 1.9 | -2.6 | -2.5 | -7.2%
Cc1nc2ccccc2c(=O)n1-c1cccc(C(F)(F)F)c1 | 2.8 | -2.1% | -3.9 | 8.5 | -0.4 | -1.8 | 11.4%
Cc1cc(C)n(CCOC(=O)C2C(C=C(Cl)Cl)C2(C)C)n1 (configuration not stated) | 9.1 | -1.3% | -14.1 | -2.9 | 6.6 | -15.8 | 8.2%
Cc1cc(OCc2nn[nH]n2)c2c3c(c(=O)oc2c1)CCCC3 | ? | -3.4% | -4.7 | -3.7 | -29.6 | 4.6 | 13.7%
CSCCC(c1nnnn1C1CCCC1)N1CCC2(CC1)C(=O)NCN2c1ccccc1 (configuration not stated) | -14.3 | 1.9% | nt | -1.8 | -6.3 | -8.9 | nt
COc1ccc(NC2=NC(C)(C)CS2)cc1 | 3.3 | 1.8% | -7.5 | -1.0 | -3.8 | -1.8 | 56.2µM*
CCCCCCN=C(C)c1c(O)n(Cc2ccccc2)c(=O)[nH]c1=O | -1.9 | -2.2% | 0.1 | -1.6 | -0.2 | -0.4 | -1.0%
CCCCOC(=O)C1=C(N)OC2=C(C(=O)CCC2)[C@]12C(=O)N(C)c1ccccc12 | 9.8 | 1.7% | -16.3 | 0.8 | -3.6 | -9.4 | 11.3%
Cn1c(O)c(C=Nc2ccc(F)cc2)c(=O)[nH]c1=O | -1.4 | 0.7% | -3.1 | -0.3 | nt | nt | 17.8%
CC(=O)C1C(N2CC2)CC2C3CCC4=CC(=O)CCC4(C)C3CCC21C (configuration not stated) | 0.2 | 7.7% | nt | 2.4 | 2.1 | 6.6 | nt
C[C@]12CCC(=O)C=C1CC[C@@H]1[C@@H]2CC[C@]2(C)C(=O)CC[C@@H]12 | -0.7 | 3.7% | -8.0 | -1.1 | 6.5 | 13.8 | -20.1%&1.2%&12.2%
NC(=O)C1(N2CCCCC2)CCN(Cc2ccccc2)CC1 | 5.5 | nt | ? | -2.5 | 11.9 | -20.7 | 13.4%
COc1ccc(CCNCc2ccsc2)cc1OC | 0.7 | -0.7% | -19.4 | 4.3 | 4.3 | -9.7 | -5.0%
Cc1ccc(OCC(=O)N2CCN(Cc3ccc4c(c3)OCO4)CC2)cc1C | -11.3 | -1.5% | -3.1 | 6.5 | -1.1 | -3.1 | 7.4%
O=c1c(C=Nc2cccnc2Cl)c(O)n(CCCCl)c(=O)n1C1CCCCC1 | 3.7 | 0.3% | -4.0 | -4.2 | 2.6 | -4.6 | -16.0%
Cc1nonc1-c1nc(-c2nonc2N)n[nH]1 | 4.5 | -1.3% | -3.5 | -3.8 | 6.3 | -16.5 | -8.2%
S=c1[nH]c2cc(Br)cnc2[nH]1 | -11.8 | -1.4% | 0.3 | -1.6 | -3.7 | -6.6 | 22.4µM*
Cc1cccc(NC(N)=S)c1 | -1.6 | 3.2%[38.3 µM] | 1.8 | -1.0 | 11.5 | -15.2 | 1.3%
O=C1C=CC(=O)C2C1C1(Cl)C(Cl)=C(Cl)C2(Cl)C1(Cl)Cl (configuration not stated) | -8.9 | -1.4% | nt | 14.2 | -4.0 | nt | nt
O=C1CN=C(c2ccccc2)c2oc3ccc(Br)cc3c2N1 | 1.8 | 4.7% | 14.5 | 0.3 | 1.1 | 0.6 | 19.2%
CC(=NCCO)c1c(O)n(C)c(=O)n(C)c1=O | 0.0 | 0.2%[38.3 µM] | -1.5 | -1.5 | 9.4 | -8.7 | 11.8%
N=c1sc2c(n1Cc1ccccc1)CCCC2 | 17.0 | -2.8%[38.3 µM] | -9.5 | -0.9 | 45.7 | -13.2 | -5.8%
CCOc1ccc(NC(=O)CCNC(=O)N2C[C@H]3C[C@@H](C2)c2cccc(=O)n2C3)cc1 | 0.1 | -0.3% | -1.8 | -6.4 | 4.7 | -10.4 | 16.8%
CC(=O)N1N=C2C3CCN(CC3)C2C1c1cccc2ccccc12 (configuration not stated) | 9.2 | -0.8% | 21.5 | -5.7 | -0.3 | -5.7 | -5.4%
C[C@@H]1CN([C@H](C)CO)C(=O)CCCn2cc(nn2)CO[C@H]1CN(C)C(=O)Oc1ccc2ccccc2c1 | 0.4 | -1.0% | nt | -2.7 | -24.5 | -0.3 | nt
COC(=O)C1=C(c2cccc(OCc3ccccc3)c2)C[C@@H]2CC[C@H]1N2C(=O)NNCc1ccccc1 | -6.8 | -0.1% | -2.5 | -4.9 | -1.1 | -14.5 | nt
COc1cccc(CNC(=O)CCC(=O)N2C[C@H]3C[C@H](C2)c2cccc(=O)n2C3)c1OC | 4.4 | -0.9% | -9.5 | -5.3 | 5.5 | -19.2 | 3.7%
Cc1cccc(C)c1OP(N)(=O)Oc1c(C)cccc1C | 0.1 | 1.8% | 11.8 | 2.1 | nt | 0.7 | 12.1%
CCCc1c(C)nc(-c2ccc(C)cc2)nc1OC(=O)N(C)C | 15.6 | 3.8% | -21.0 | 0.8 | 6.2 | -12.7 | 0.8%
CCOC(=O)C1CCN(C(C)C(=O)c2c(C)[nH]c3cc(C)ccc23)CC1 (configuration not stated) | -1.2 | -2.1% | 7.9 | -1.2 | 0.2 | -41.5 | -11.9%
CC(=O)Nc1cc(C(=O)N2CCC3(CC2)OCCO3)ccc1Sc1ccc(F)cc1 | 0.2 | 2.7% | 5.0 | -3.9 | 0.6 | -6.8 | -1.8%
Clc1ccc2c(c1)C(c1ccccc1Cl)=NCc1nncn1-2 | -3.7 | -2.0% | 17.4 | -1.6 | -5.2 | -3.7 | 10.2%
CCCCn1c(=O)c(C(=O)NCc2ccccc2Cl)c(O)c2ccccc21 | 7.0 | 11.8% | -8.4 | -0.9 | nt | 9.5 | 5.7%
COc1ccccc1-n1c(-c2cccs2)nc2ccccc2c1=O | -5.9 | 0.4% | -0.8 | -2.7 | 7.3 | -3.1 | 1.8%
O=P(C(c1ccc2c(c1)OCO2)N1CCOCC1)(N1CCOCC1)N1CCOCC1 (configuration not stated) | 2.9 | -0.3% | 1.4 | -4.5 | 4.6 | -13.3 | 2.7%
CC1(C)C2([N+](=O)[O-])CNCC1([N+](=O)[O-])CNC2 | 10.4 | 0.6% | 1.5 | 0.3 | -0.4 | -0.6 | 2.3%
COc1ccccc1N1CCN(Cc2cccc(OC)c2O)CC1 | -3.5 | -3.6% | -1.4 | 8.9 | 2.5 | -5.6 | 2.3%
COc1cc2c(cc1OC)-c1c3c(cc4c1[C@@H](C2)N(C)CC4)OCO3 | ? | -0.9% | 20.5 | 4.5 | ? | -26.4 | -5.6%
O=C1NC(=O)C(=Cc2coc3ccc(O)cc3c2=O)C(=O)N1 | 0.0 | 5.9% | -4.8 | 0.6 | -2.9 | -5.5 | 12.6µM*

Record cards, as listed above. Values in the order: Six1-Eya2 blk | PINK1 expr mod | TRPV1 PAM | D2 agonist | CtBP-E1A blk | D2 potentiator | Sfp inh
CCCc1c(C)nc(-c2ccc(C)cc2)nc1OC(=O)N(C)C is entered as 15.6 | 3.8% | -21.0 | 0.8 | 6.2 | -12.7 | 0.8%
CCCCn1c(=O)c(C(=O)NCc2ccccc2Cl)c(O)c2ccccc21 is entered as 7.0 | 11.8% | -8.4 | -0.9 | nt | 9.5 | 5.7%
